Screening data from PubChem.
rRNA inh HTS: inhibits bacterial ribosomal RNA function over humanized ribosomes. E. coli WT GFP vs humanized-ribosome RFP mutants, fluorescence, 24 h; active compounds read low; DMSO median 0, no signal -100. 350,000 tested, 1.6% active. AID 720706. GFP signal change (wild-type ribosome), % (concentration not given with the values);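 active means significant combined selectivity score with lowered wild-type GFP, culture density cut under 30%, mutant RFP and density less affected; inactive means any of these conditions unmet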; further: one replicate is shown; some compounds called inactive have numbers as strong as hits
Ecoli growth: inhibitors of Escherichia coli growth | OD600, 23 h; active compounds read low | OD600 absorbance (test concentration not listed) | 330,000 tested, 0.21% active | AID 1053175;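 active means OD600 absorbance below the run mean of sample wells minus 3.6 SD, in any replicate, cut at about 0.56 in these data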;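 further: stock transfer was 300 nL into about 60 µL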
FGF22 binding: shifts melting point of recombinant human FGF22; calls only at 9.99 µM; recombinant FGF22 thermal shift, SYPRO orange fluorescence; percent of sucrose octasulfate shift, DMSO zero; 340,000 tested, 1.5% active;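 active means melting point raised past a set limit in the mean and every replicate; inconclusive means no clear call; three in four hits are not shown here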
Target sequence (Q9HCT0 whole entry, looked up): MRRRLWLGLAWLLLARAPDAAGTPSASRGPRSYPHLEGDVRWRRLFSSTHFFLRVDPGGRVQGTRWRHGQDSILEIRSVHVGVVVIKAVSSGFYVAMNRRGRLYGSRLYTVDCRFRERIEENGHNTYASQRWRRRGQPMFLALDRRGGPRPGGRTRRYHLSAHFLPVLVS
HNF4A DNA FP: change in binding of human HNF4 alpha to DNA; activity change, % at 10 µM; P41235; HNF4a-FITC DNA binding, fluorescence polarization, 1 h; 360,000 tested, 0.3% active; AID 1224865; in the data active means activity change above about 30%, passing the limit was not always enough;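 further: controls were the assay level and a saturating level of protein; the project sought stronger binding though the title names inhibitors; some compounds called inactive have numbers as strong as hits; positive values seem to mean higher polarization but the record does not say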
AF4-AF9 inh: blocks AF4 peptide binding to human AF9 | P42568 | AlphaScreen, biotin-AF4 peptide binding to FLAG-AF9 | inhibition, % at 10 µM | 350,000 tested, 0.47% active | AID 651704;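 active means every replicate reaching a set inhibition limit, whatever the replicate mean, cut at about 25% in these data; inconclusive means mean inhibition reaches that limit but some replicates miss it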;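 further: 0% = plate neutral control median and 100% = total signal loss; the record names both 10 and 1 µM as test concentration; the first replicate is given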
Target sequence (P42568 whole entry, looked up): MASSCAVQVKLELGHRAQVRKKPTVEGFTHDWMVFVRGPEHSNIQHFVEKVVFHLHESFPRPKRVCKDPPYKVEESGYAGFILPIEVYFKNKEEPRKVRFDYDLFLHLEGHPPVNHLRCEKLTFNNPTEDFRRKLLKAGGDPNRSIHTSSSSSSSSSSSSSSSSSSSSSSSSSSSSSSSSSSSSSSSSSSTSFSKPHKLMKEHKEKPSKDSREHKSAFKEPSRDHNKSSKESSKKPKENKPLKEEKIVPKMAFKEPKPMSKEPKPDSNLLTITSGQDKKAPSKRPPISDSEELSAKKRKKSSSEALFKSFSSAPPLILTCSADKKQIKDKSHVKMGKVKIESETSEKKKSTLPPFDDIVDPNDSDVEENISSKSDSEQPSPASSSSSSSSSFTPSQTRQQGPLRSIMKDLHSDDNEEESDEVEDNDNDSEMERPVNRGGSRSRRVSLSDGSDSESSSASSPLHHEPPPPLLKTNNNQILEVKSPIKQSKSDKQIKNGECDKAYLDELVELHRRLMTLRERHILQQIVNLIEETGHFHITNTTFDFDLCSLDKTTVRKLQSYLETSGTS
ALR inh: inhibitors of human sulfhydryl oxidase ALR | P55789 | purified ALR, DTT oxidation, H2O2 HRP-luminol luminescence | inhibition, % (concentration not given with the values) | 290,000 tested, 3.8% active;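 active means mean and each replicate at 75% or more; inconclusive means only one of the two met; inactive means neither met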;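 further: stock transfer was 7.5 nL into about 7.5 µL; 0% = neutral wells and 100% = wells with inactivated enzyme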
Target sequence (P55789 whole entry, looked up): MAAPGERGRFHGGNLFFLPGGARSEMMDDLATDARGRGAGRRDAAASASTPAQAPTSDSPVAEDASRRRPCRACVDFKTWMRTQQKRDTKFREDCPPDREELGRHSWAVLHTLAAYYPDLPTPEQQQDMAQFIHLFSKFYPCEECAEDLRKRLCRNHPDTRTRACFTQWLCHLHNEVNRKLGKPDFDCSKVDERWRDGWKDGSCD
Vif A3G: inhibitors of Vif binding to APOBEC3G peptide, primary screen, biochemical, TR-FRET, GST-Vif 1-94, biotin-A3G peptide, dose response retest (AID 1117319) | TR-FRET GST-Vif / biotin-A3G peptide binding; higher % means a stronger effect; test concentration not given here; strong numbers were not always called active | one-dose inhibition, %; IC50 in µM for titrated hits | 260,000 tested, 0.57% active;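 active means above the screen mean plus three standard deviations and confirmed in dose response; inconclusive means results disagree or hit not tested in dose response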;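 further: Vif residues 1-94 fused to GST binding biotinylated APOBEC3G peptide 110-148; 0% = full assay without inhibitor and 100% = GST in place of GST-Vif; retest series ran down from 100 µM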
rRNA inh HTS OD600: recorded beside rRNA inh HTS, whose call it bears; OD600 change, %; measured here: OD600 growth;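 optical density of the mix in the first replicate; 0 = DMSO median and -100 = no signal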
rRNA inh HTS RFP: recorded beside rRNA inh HTS, whose call it bears; RFP signal change, %; measured here: RFP humanized mutant strains;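 first replicate; 0 = DMSO median and -100 = no signal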
An asterisk follows results filed as active; i = inactive; ? = inconclusive; · = not tested or not shown; + = active, no number. The list is partial. The share of hits here may be higher or lower than overall.

rRNA inh HTS | smiles | rRNA inh HTS OD600 | rRNA inh HTS RFP | Ecoli growth | FGF22 binding | HNF4A DNA FP | AF4-AF9 inh | ALR inh | Vif A3G
-9 | CO[C@H](CN(C)C(=O)Nc1ccc(Cl)cc1)[C@@H](C)CN(Cc1ccccc1Cl)[C@H](C)CO | -16 | -0.4 | · | i | · | 3.8 | · | ·
0 | CCOc1ccccc1N1C(=O)CC(Sc2ncccc2C(=O)O)C1=O (centres undefined) | -5 | -7.4 | 0.65 | i | 1.3 | 4.5 | · | 0%
-3 | C[C@@H]1CN([C@H](C)CO)S(=O)(=O)c2ccc(-c3ccccc3F)cc2O[C@@H]1CN(C)S(C)(=O)=O | 1 | 0.2 | · | i | · | -0.3 | · | ·
-16 | CC1(C)CC(=O)C=C(c2ccc(-c3ccc4[nH]ccc4c3)cc2)C1=O | -7 | 12 | · | i | 0.5 | 14 | · | -2%
· | O=C(NCCCCNC(=O)C1CCCC1)C1CCCC1 | · | · | 0.68 | · | 3.6 | · | -2 | 0%
-4 | O=C(CCc1ccccc1)NNC(=O)Nc1cccc(Cl)c1 | 1 | 0.6 | 0.67 | i | 0.7 | -1.9 | -6 | 1%
· | O=C(Nc1nnc(-c2ccccc2Cl)o1)c1cccnc1 | · | · | 0.56 | · | 0.4 | · | 8 | ?
· | NC(=O)c1ccccc1N/C=C/C(=O)c1cccs1 | · | · | · | · | 2.1 | · | -3 | 12%
7 | CC(=O)C1=C(O)CC(c2ccccc2)CC1=NCCc1c(C)[nH]c2ccc(C)cc12 (centres undefined) | 17 | -2.6 | 0.75 | i | 1.6 | 0.4 | -8 | -2%
-2 | CCOc1ccccc1OCCCC(=O)Nc1cc(S(=O)(=O)N2CCOCC2)ccc1OC | -3 | 2.0 | 0.72 | i | -3.6 | -0.9 | -5 | -12%
· | O=C(NCc1ccc2c(c1)OCO2)c1ccncc1 | · | · | 0.71 | · | 1.1 | · | -2 | 19%
· | COc1ccc(CN(C(=O)c2ccco2)c2ccc(C)cc2)cc1OC | · | · | 0.71 | · | -1.3 | · | · | 5%
9 | O=C(CSc1nnc2c(n1)[nH]c1ccc(F)cc12)Nc1ccccc1F | 18 | 2.3 | 0.7 | i | -0.4 | -0.3 | 14 | -4%
9 | Cc1cccc(O)c1C | 3 | 1.4 | 0.66 | i | 1.2 | -2.6 | · | ·
-51* | COC(=O)c1cc(NC(=O)Nc2cccc(Cl)c2)ccc1Cl | -29* | -17* | 0.52 | i | -0.5 | 8.6 | -3 | 0%

Ten entries already listed, arranged by number of heavy atoms, descending:
rRNA inh HTS | smiles | rRNA inh HTS OD600 | rRNA inh HTS RFP | Ecoli growth | FGF22 binding | HNF4A DNA FP | AF4-AF9 inh | ALR inh | Vif A3G
-2 | CCOc1ccccc1OCCCC(=O)Nc1cc(S(=O)(=O)N2CCOCC2)ccc1OC | -3 | 2.0 | 0.72 | i | -3.6 | -0.9 | -5 | -12%
-9 | CO[C@H](CN(C)C(=O)Nc1ccc(Cl)cc1)[C@@H](C)CN(Cc1ccccc1Cl)[C@H](C)CO | -16 | -0.4 | · | i | · | 3.8 | · | ·
7 | CC(=O)C1=C(O)CC(c2ccccc2)CC1=NCCc1c(C)[nH]c2ccc(C)cc12 (centres undefined) | 17 | -2.6 | 0.75 | i | 1.6 | 0.4 | -8 | -2%
9 | O=C(CSc1nnc2c(n1)[nH]c1ccc(F)cc12)Nc1ccccc1F | 18 | 2.3 | 0.7 | i | -0.4 | -0.3 | 14 | -4%
-16 | CC1(C)CC(=O)C=C(c2ccc(-c3ccc4[nH]ccc4c3)cc2)C1=O | -7 | 12 | · | i | 0.5 | 14 | · | -2%
-51* | COC(=O)c1cc(NC(=O)Nc2cccc(Cl)c2)ccc1Cl | -29* | -17* | 0.52 | i | -0.5 | 8.6 | -3 | 0%
· | O=C(Nc1nnc(-c2ccccc2Cl)o1)c1cccnc1 | · | · | 0.56 | · | 0.4 | · | 8 | ?
· | O=C(NCCCCNC(=O)C1CCCC1)C1CCCC1 | · | · | 0.68 | · | 3.6 | · | -2 | 0%
· | NC(=O)c1ccccc1N/C=C/C(=O)c1cccs1 | · | · | · | · | 2.1 | · | -3 | 12%
9 | Cc1cccc(O)c1C | 3 | 1.4 | 0.66 | i | 1.2 | -2.6 | · | ·

Carrying on.
rRNA inh HTS | smiles | rRNA inh HTS OD600 | rRNA inh HTS RFP | Ecoli growth | FGF22 binding | HNF4A DNA FP | AF4-AF9 inh | ALR inh | Vif A3G
-22 | CCOC(=O)C1(CCCc2ccccc2)CCN(C(=O)CCOC)CC1 | -19 | -2.5 | 0.66 | i | -1.5 | 2.1 | -5 | -5%
-7 | CCOC(=O)C1(CCCc2ccccc2)CCN(C(=O)CN2CCOC2=O)CC1 | -10 | -4.4 | 0.65 | i | 0.6 | -2.8 | 0 | 9%
1 | COc1ccccc1-c1coc2cc(OC(=O)N3CCOCC3)ccc2c1=O | 4 | 2.4 | 0.65 | i | -4.0 | · | -18 | 1%
· | CSc1nc(SCCO)c2sc3nc(-c4ccco4)c4c(c3c2n1)CC(C)(C)OC4 | · | · | 0.76 | · | -52 | · | · | ?
· | CCn1c(SCc2ccc(F)cc2)nnc1-c1nn(-c2ccccc2)ccc1=O | · | · | 0.77 | · | 1.3 | · | -3 | -1%
· | O=C(CSc1nc(-c2ccccc2)c(-c2ccccc2)[nH]1)Nc1ccc2c(c1)OCO2 | · | · | 0.71 | · | -1.5 | · | · | -3%
· | CCN1C(=O)/C(=C2/C=Cc3ccccc3N2C)OC1=S | · | · | 0.74 | · | 56 | · | -19 | 8%
4 | CN(C(=O)Nc1cnc2ccccc2c1)c1ccccc1 | 4 | -3.6 | 0.68 | i | 2.8 | -25 | -3 | 3%
-5 | C[C@H]1CN([C@@H](C)CO)C(=O)c2cccc(NS(=O)(=O)c3cccs3)c2O[C@H]1CN(C)Cc1ccc(C(F)(F)F)cc1 | -13 | 1.9 | · | i | · | -1.1 | · | ·
-8 | C[C@H](CO)N1C[C@H](C)[C@H](CN(C)S(=O)(=O)c2cn(C)cn2)OCCCC[C@H](C)Oc2ccc(NS(=O)(=O)c3ccc(F)cc3)cc2C1=O | 2 | 0.8 | · | i | · | 1.5 | · | ·
7 | Cc1ccc(SCc2ccc(C(=O)Nc3ccccc3C(=O)NC(C)C)cc2)cc1 | 7 | -9.7 | 0.71 | i | -2.4 | -14 | -11 | ·
0 | O=C(C[C@@H]1C[C@@H]2c3cc(NC(=O)NC4CCCC4)ccc3O[C@@H]2[C@@H](CO)O1)NCC1CC1 | -5 | -3.5 | · | i | · | 1.6 | · | ·
9 | CCn1c(SCC(=O)NC2CC2)nnc1-c1ccccc1OC | 1 | 1.4 | 0.68 | i | 3.2 | -2.3 | -9 | ·
8 | CCOC(=O)C1=C(c2ccccc2)N=C2SCC(=O)N2C1c1ccc(O)c(OC)c1 (centres undefined) | 1 | 4.3 | 0.72 | i | 5.3 | 4.8 | 6 | 12%
-9 | CN(Cc1ccccc1)C(=O)c1ccc(NC(=O)Cc2cccc([N+](=O)[O-])c2)cc1 | -24 | -1.4 | 0.69 | i | -1.1 | 7.8 | 0 | ·
7 | O=c1cc(Cc2ccc([N+](=O)[O-])cc2)[nH]c(=O)[nH]1 | 5 | -2.1 | · | i | -2.0 | -3.0 | · | ·
-12 | C[C@@]12CCC3[C@@](CCC4[C@@]3(C)CCC[C@@]4(C)C(=O)NCc3ccccc3)(CC1=O)C2 (some centres undefined) | -6 | 1.8 | 0.7 | i | 1.3 | · | 4 | ·
· | Nn1c(SCC(=O)Nc2ccc(F)cc2)nnc1-c1cccnc1 | · | · | 0.73 | · | 2.9 | · | -28 | 10%
· | CCCNC(=O)CC(NS(=O)(=O)c1ccc(Cl)cc1)c1ccco1 (centres undefined) | · | · | 0.75 | · | -1.3 | · | -1 | -1%
-2 | C[C@H]1CN([C@@H](C)CO)C(=O)Cc2cc(NC(=O)C3CCCCC3)ccc2O[C@@H]1CN(C)Cc1ccc(-c2ccccc2)cc1 | 6 | 4.1 | · | i | · | -1.4 | · | ·
-1 | CCCNC(=O)N1C[C@@H](C)[C@@H](OC)CN(C)C(=O)c2ccc(NS(=O)(=O)CC(F)(F)F)cc2OC[C@@H]1C | 10 | -2.4 | · | i | · | -17 | · | ·
· | Cc1nc2ccccc2nc1SCC(=O)c1ccccc1 | · | · | 0.66 | · | -0.6 | · | -3 | ·
· | O=C(O)CCN(CCC(=O)O)S(=O)(=O)c1ccccc1 | · | · | 0.66 | · | 0.1 | · | -11 | 5%
-1 | C[C@H](O)C#Cc1cnc2c(c1)C(=O)N([C@H](C)CO)C[C@H](C)[C@H](CN(C)C(=O)CN1CCOCC1)O2 | 0 | -1.1 | · | i | · | -3.5 | · | ·
4 | C[C@H](CO)N1C[C@H](C)[C@@H](CN(C)C(=O)Nc2ccc3c(c2)OCO3)Oc2c(NC(=O)c3cnccn3)cccc2C1=O | 2 | -2.4 | · | + | · | -3.0 | · | ·
· | O=C(c1ccco1)N1CCN(CCCCOc2cccc3ccccc23)CC1 | · | · | 0.65 | · | -1.4 | · | -43 | 0%
8 | CC(C)(C)N(Cc1ccccc1)C(=O)CSc1nc2ccccc2c(=O)[nH]1 | 3 | -5.5 | 0.65 | i | 0.4 | 6.6 | -4 | -17%
· | C=CCSc1nnc2c(n1)OC(c1cccnc1)N(C(C)=O)c1ccccc1-2 (centres undefined) | · | · | 0.68 | · | 1.5 | · | -16 | 29%
· | COc1ccc(-n2nc(C)cc2Nc2ccccc2C(=O)O)cc1 | · | · | 0.64 | i | 1.1 | -7.8 | 99* | -5%
· | CSc1nnc2c3cc(C)ccc3n(Cc3ccccc3)c2n1 | · | · | 0.73 | · | -1.0 | · | -2 | -5%
2 | C[C@H](CO)N1C[C@H](C)[C@@H](CN(C)C(=O)Nc2ccnc(N3CCOCC3)c2)OCc2ccccc2-c2ccccc2C1=O | 2 | 0.5 | · | i | · | -1.5 | · | ·
14 | CC(=O)Nc1nnc(/C=C/c2cccc([N+](=O)[O-])c2)s1 | 13 | 6.1 | 0.65 | i | 2.7 | -1.6 | -6 | ·
-30 | CC(O)c1nc2ccccc2n1CCCCOc1ccccc1 (centres undefined) | -42 | -5.0 | 0.71 | · | -3.6 | 0.9 | -21 | 2%
28 | Cc1cn(CC(=O)NCCCn2ccnc2)c(=O)[nH]c1=O | 25 | 1.4 | · | i | -2.4 | -2.6 | · | ·
-3 | Cc1ccc(C(C)(C)C)cc1S(=O)(=O)Nc1cccc(C(=O)N2CCN(c3ccccn3)CC2)c1 | -17 | -0.9 | 0.68 | i | -0.7 | -6.2 | · | 0%
0 | O=C(CCN1CCCCC1)N[C@H]1C=C[C@@H](CC(=O)N2CCC(Cc3ccccc3)CC2)O[C@H]1CO | 7 | 0.3 | · | i | · | 0.0 | · | ·
0 | COc1ccc(-c2cnc3c(c2)C(=O)N([C@@H](C)CO)C[C@@H](C)[C@@H](CN(C)C(=O)C2CCOCC2)O3)cc1 | 6 | -2.1 | · | i | · | -1.5 | · | ·
· | Cn1cnnc1SC1CCCCC1NS(=O)(=O)c1ccccc1 (centres undefined) | · | · | 0.67 | · | -1.7 | · | -23 | -4%
3 | CCOc1ccc(NC(=O)CN(C)C(=O)CCN2C(=O)C3CC=CCC3C2=O)cc1OCC (centres undefined) | 6 | -0.9 | 0.65 | i | -0.2 | -9.1 | -1 | -6%
